Hedgehog: Hh protein inhibition, biochemical readout – plate reader, single concentration, primary screen (AID 588832). 8,000 tested, under 10 active. inhibition, % at 30.3 µM. Biochemical plate reader assay, Hedgehog inhibition; hits give high values; in the data active = inhibition from about 57%;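 note: 0% = neutral control wells and 100% = positive control wells; cholesterol-driven self-cleavage of fly hedgehog protein by fluorescence polarization; read one hour after cholesterol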
Active calls of the source: *.

Start of the data: the first 2 records, ahead of the listing:
[1] COc1ccc(N(CC(=O)Nc2cc(C)ccc2C)S(=O)(=O)c2c(C)nn(C)c2C)cc1
  Hedgehog: 8.0
[2] Cc1cc(C)cc(NC(=O)C2CCCN2S(=O)(=O)c2ccc3c(c2)C(C)(C)C(=O)N3C)c1 (stereo not drawn)
  Hedgehog: 20.0

The listing, from the first entry:
[1] COc1ccc(N(CC(=O)Nc2cc(C)ccc2C)S(=O)(=O)c2c(C)nn(C)c2C)cc1
  Hedgehog: 8.0
[2] Cc1cc(C)cc(NC(=O)C2CCCN2S(=O)(=O)c2ccc3c(c2)C(C)(C)C(=O)N3C)c1 (stereo not drawn)
  Hedgehog: 20.0
[3] Cc1ccc(-n2nnc3c(=O)n(CC(=O)c4ccccc4)cnc32)cc1
  Hedgehog: 11.5
[4] O=[N+]([O-])c1ccc(S(=O)(=O)NCCc2cn3ccccc3n2)cc1
  Hedgehog: 0.0
[5] COc1ccc(-c2cc3c(=O)n(CC(=O)NCc4ccccc4OC)ncn3n2)cc1
  Hedgehog: 7.0
[6] CCOC(=O)N1CCC(NC(=O)c2cccc3c2C(=O)N(CCOC)C3)CC1
  Hedgehog: 3.8
[7] O=C1c2ccccc2-n2c1nc1ccccc1c2=O
  Hedgehog: 1.7
[8] CCOc1ccc(N(CC)C(=O)COc2cc(=O)n(C)c3ccccc23)cc1
  Hedgehog: 15.6
[9] COc1c(C(O)CC(C)C)ccc2c1C(=O)OCc1cc(C)cc(O)c1O2 (stereo not drawn)
  Hedgehog: 5.2
[10] Cc1c(C(=O)OCCOC(C)C)[nH]c2c1C(=O)CC(C)(C)C2
  Hedgehog: 10.0

Exported as tab-separated lines: two of the compounds above
nr	SMILES	Hedgehog
5	COc1ccc(-c2cc3c(=O)n(CC(=O)NCc4ccccc4OC)ncn3n2)cc1	7.0
6	CCOC(=O)N1CCC(NC(=O)c2cccc3c2C(=O)N(CCOC)C3)CC1	3.8

(list continues)
[11] Cc1ccc(C)c(N2CCN(C(=O)c3cn(C)c4ccc(S(=O)(=O)N(C)C)cc4c3=O)CC2)c1
  Hedgehog: 5.5
[12] CC1NC(=O)N(C)[C@@H]2NC(=O)N(C)C(c3ccc([N+](=O)[O-])cc3)[C@@H]12 (stereo partly drawn)
  Hedgehog: 5.2
[13] Cc1ccc(C(=O)CCC(=O)N2CCN(c3ccc(F)cc3)CC2)cc1
  Hedgehog: 5.0
[14] NC(=O)CSc1nnc(Cn2c(=O)sc3ccccc32)n1-c1ccccc1
  Hedgehog: 20.8
[15] COc1ccc(C2SCC(C(=O)O)N2C(C)=O)cc1OC (stereo not drawn)
  Hedgehog: 17.4
[16] COc1ccc(CCNC(=O)CCS(=O)(=O)c2ccc3nc(C)sc3c2)cc1OC
  Hedgehog: -1.7
[17] COc1ccc(-n2c(Cn3c(=O)sc4ccccc43)nnc2SCC(=O)N2CCCCC2)cc1
  Hedgehog: 5.0
[18] Cc1onc(-c2ccccc2Cl)c1C(=O)Nc1nnc(-c2ccc(Br)cc2)s1
  Hedgehog: 5.5
[19] CC1=C(/C=C/C(C)=C/C=C/C(C)=C/C(=O)Nc2ccc(O)cc2)C(C)(C)CCC1
  Hedgehog: 3.6
[20] Cc1ccc2c(c1)N(C(=O)CCC(=O)N1CCN(c3ccccn3)CC1)CC(C)O2 (stereo not drawn)
  Hedgehog: 14.5

[21] CC(=O)NC(CCS(C)(=O)=O)C(=O)Nc1ccccc1 (stereo not drawn)
  Hedgehog: -4.6
[22] Cc1nnc(SCC(=O)Nc2nsc(-c3ccc(C(C)(C)C)cc3)n2)s1
  Hedgehog: 12.5
[23] CCn1cc(SCC(=O)N2CCOCC2)c2ccccc21
  Hedgehog: 5.1
[24] Cc1cc(NC(=O)C2CCCN(S(=O)(=O)c3c(C)noc3C)C2)n[nH]1 (stereo not drawn)
  Hedgehog: 10.9
[25] Clc1ccc2c(c1)[C@H]1OCC[C@H]1[C@@H](c1ccco1)N2
  Hedgehog: 14.9
[26] Cc1ccc(C2CC(c3ccc(C)cc3)n3nc(N)nc3N2)cc1 (stereo not drawn)
  Hedgehog: 8.7
[27] COc1cc(C2N(c3ccc(Cl)cc3)C(=O)C3CCCN32)cc(OC)c1OC (stereo not drawn)
  Hedgehog: 16.7
[28] Cc1ccc2c(c1)[C@H]1OCC[C@H]1[C@@H](c1ccncc1)N2
  Hedgehog: 6.3
[29] COCCCN(CCNC(=O)c1ccc(NC2=NC3CS(=O)(=O)CC3S2)cc1)Cc1ccco1 (stereo not drawn)
  Hedgehog: 0.0
[30] Cc1ccc(C(=O)NCCn2cc(SCC(=O)Nc3nnc(C)s3)c3ccccc32)cc1
  Hedgehog: 8.4
[31] CCc1ccc(S(=O)(=O)NCc2cn3c(C)csc3n2)s1
  Hedgehog: 9.5
[32] COc1cc2c(OC(C)=O)c3c(c(-c4ccc5c(c4)OCO5)c2cc1OC)C(=O)OC3
  Hedgehog: 5.1
[33] O=C(Cn1nc(Cc2ccncc2)c2ccccc2c1=O)N1CCc2ccccc2C1
  Hedgehog: 0.0

Laid out differently: results already given.
entry	SMILES	Hedgehog
21	CC(=O)NC(CCS(C)(=O)=O)C(=O)Nc1ccccc1 (stereo not drawn)	-4.6
22	Cc1nnc(SCC(=O)Nc2nsc(-c3ccc(C(C)(C)C)cc3)n2)s1	12.5

Shown with values ahead of the structure: part of the list above.
| nr | Hedgehog | Molecule |
| --- | --- | --- |
| 17 | 5.0 | COc1ccc(-n2c(Cn3c(=O)sc4ccccc43)nnc2SCC(=O)N2CCCCC2)cc1 |
| 18 | 5.5 | Cc1onc(-c2ccccc2Cl)c1C(=O)Nc1nnc(-c2ccc(Br)cc2)s1 |

Compound activity (PubChem BioAssay)

These rows are one share of the data; rates above refer to the full screens.
